Cruzain Triton – inhibitors of Trypanosoma cruzi cruzain with detergent; P25779; purified cruzain, Z-FR-AMC fluorescence, 0.01% Triton; Potency, µM, for inactives: max response, negative = inhibition, usual class: inhibitors; 0.43% of 200,000 active; AID 1478;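 further: plate controls were neutral wells for no effect and buffer without enzyme for full effect; nearly all actives have a fitted effect of over 40% in size; top concentration of the series not given in the record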
Target sequence (P25779 123-467 limits assumed): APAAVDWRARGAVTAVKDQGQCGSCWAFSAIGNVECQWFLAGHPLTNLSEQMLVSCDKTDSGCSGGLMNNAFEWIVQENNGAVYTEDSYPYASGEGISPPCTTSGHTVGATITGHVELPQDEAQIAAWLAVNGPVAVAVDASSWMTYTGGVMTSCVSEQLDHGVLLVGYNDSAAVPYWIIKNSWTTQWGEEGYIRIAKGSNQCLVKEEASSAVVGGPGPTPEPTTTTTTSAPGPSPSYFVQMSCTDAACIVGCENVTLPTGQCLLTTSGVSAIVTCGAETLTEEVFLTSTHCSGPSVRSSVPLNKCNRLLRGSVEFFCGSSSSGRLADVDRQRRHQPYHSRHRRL
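Enzyme 1.5 nM, Z-FR-AMC 2 uM, NaOAc 100 mM pH 5.5, DTT 5 mM, Triton X-100 0.01%; 15 min RT compound preincubation; kinetic ex360/em450, 60 s delta.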
SARS PLpro yeast – inhibitors of SARS-CoV papain-like protease in yeast. AID 485353. 0.19% of 330,000 active. Potency, µM (top dose mostly 32.9 µM), for inactives: top-dose activity, positive = growth rescue. S. cerevisiae expressing SARS-CoV PLpro, growth rescue; control for the full effect not named in the record; active means well fitted rising curve with a large enough effect; inconclusive means small, poorly fitted or top-dose-only effect; inactive means no such curve, though single readings can be large or run the other way; further: 0% is about no effect; nearly all actives have a fitted effect of over 55% in size; growth read by luminescence after 48 h
2A StopGo – lowers the luciferase signal of an FMDV 2A StopGo reporter | human cells with a luciferase reporter of 2A StopGo recoding; control for the full effect not named in the record | Potency, µM (titrated, usually from 57.9 µM), for inactives: at the highest dose signal change, negative = less light | 1.2% of 410,000 active; active = well fitted falling curve with a large enough effect; inconclusive = small, poorly fitted or top-dose-only effect; inactive = no such curve, though single readings can be large or run the other way; tested in HEK293T cells; further: on the % scale 0 is the no-effect control and ±100 the full control effect; nearly all actives have a fitted effect of over 45% in size; luciferase light after 4 h
RE007 growth inh – less growth of the S. pombe RE007 Vpr strain. S. pombe RE007 Vpr strain, BacTiter-Glo ATP luminescence, 24 h; control for the full effect not named in the record. 0.21% of 360,000 active. Potency, µM (series often up to 92.2 µM), for inactives: at the top dose activity change, negative = less growth; active = well fitted falling curve with a large enough effect; inconclusive = small, poorly fitted or top-dose-only effect; inactive = no such curve, though single readings can be large or run the other way;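 further: on the % scale 0 is the no-effect control and ±100 the full control effect; nearly all actives have a fitted effect of over 50% in size; the assay follows cell death caused by Vpr and the record does not say whether a fall means rescue or toxicity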
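Fission yeast strain RE007, carrying one chromosomally integrated HIV-1 vpr copy, was seeded at OD 0.01 in PMG+AL medium with 23 nL pinned compound. After 24 h at 30 °C and 99% humidity, viability was read by BacTiter-Glo luminescence.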
Cruzain inh noDet – inhibitors of Trypanosoma cruzi cruzain without detergent; purified cruzain, Z-FR-AMC fluorescence, no detergent; P25779; Potency, µM, for the others: max response, negative = inhibition, actives largely listed as inhibitors; 2.3% of 200,000 active;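 further: plate controls were enzyme without inhibitor for no effect and buffer without enzyme for full effect; nearly all actives have a fitted effect of over 40% in size; top concentration of the series not given in the record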
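Purified cruzain at 1.5 nM, pre-incubated 15 min with compound at room temperature in 100 mM sodium acetate pH 5.5, 5 mM DTT, 0.00005% Triton X-100. Reaction started with 2 uM Z-FR-AMC; AMC fluorescence increase over 60 s gives rate.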
MARV entry inh – Marburg virus entry inhibition. Marburg virus pseudotyped entry inhibition, cell reporter; control for the full effect not named in the record; about a third of the inactives were read at about 46 µM. Potency, µM (series often up to 37.8 µM), for inactives: at the top dose activity change, negative = inhibition, hits mostly inhibitors. 1.8% of 300,000 active; active = well fitted inhibition curve with a large enough effect; inconclusive = small, poorly fitted or top-dose-only effect, or effect the other way; inactive = flat fitted curve, though single readings scatter; tested in HEK293 cells; about a fifth of its hits are not listed in these tables; further: on the % scale 0 is the no-effect control and ±100 the full control effect; luciferase read-out
NS1 inh – blocks influenza NS1 protein function. S. cerevisiae slowed by influenza A NS1, growth recovery by OD600. AID 2326. Potency, µM (top dose mostly 46.1 µM), for the others: top-dose activity, positive = more growth. 0.4% of 270,000 active; active means well fitted rising curve with a large enough effect; inconclusive means small, poorly fitted or top-dose-only effect; inactive means no such curve, though single readings can be large or run the other way; further: nearly all actives have a fitted effect of over 50% in size
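Recovery from NS1-induced slow growth read by OD600 in budding yeast switched to galactose assay medium (pH 6.0, -URA) at 1:100 dilution. Compound 23 nl per well; the matching strain lacking NS1 serves as control.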
LASV entry inh – inhibitors of Lassa virus binding or cell entry. Lassa virus pseudotype entry inhibition, cell reporter; control for the full effect not named in the record. Potency, µM (highest dose often 37.9 µM), inactives show top-dose activity change, negative = inhibition, actives largely listed as inhibitors. 1.2% of 300,000 active; active means well fitted inhibition curve with a large enough effect; inconclusive means small, poorly fitted or top-dose-only effect, or effect the other way; inactive means flat fitted curve, though single readings scatter; tested in HEK293 cells; further: on the % scale 0 is the no-effect control and ±100 the full control effect; nearly all actives have a fitted effect of over 50% in size; luciferase read-out
* marks the source's active call; other numbers are inactive results; ? = inconclusive; . = no result given; & = joins results of further samples; [ ] = remark or other dose. Unless noted, the call rests on the fitted dose curve; in most records, active means well fitted curve in the direction sought with a large enough effect; inconclusive means small, poorly fitted or top-dose-only effect, or another doubt; inactive means no such curve, though single readings can be large; an effect the other way counts as inactive or inconclusive. Potency means the concentration at half of the fitted maximal effect.

SMILES	Cruzain Triton	SARS PLpro yeast	2A StopGo	RE007 growth inh	Cruzain inh noDet	MARV entry inh	NS1 inh	LASV entry inh
Cc1[nH]n(-c2ccc([N+](=O)[O-])cc2)c(=O)c1C=NCCN1CCN(C(=O)c2ccc(F)cc2)CC1	-13%	-6%	4%	-11%	?	-8%&-8%	2%	13%
Cc1ccc(-c2noc(-c3ccoc3C)n2)cc1	.	-1%	22%	1%	.	?	4%	?
COc1ccc(OC)c(CN2CCN(C(=O)CCC(=O)c3cccs3)CC2)c1	.	2%	-3%	?	.	?	.	0%[46.1 µM]
Cc1ccccc1OCC(=O)Nc1c(C(=O)Nc2ccccc2F)oc2ccccc12	-1.1%	.	?	.	15%	?	.	0%[46.1 µM]
Cc1ccc(NC(=S)NC2CCN(Cc3ccccc3)CC2)c(C)c1	0.8%	-19%	-23%	15%	6%	-2%	2%	-25%
COc1ccc(CCC(=O)OCC(=O)NC(=O)c2ccc(Cl)cc2)cc1	.	-3%	-7%	0%	.	28%	.	4%
CC(C)c1ccc(NC2CCCN(C(=O)c3cnc4ccccn4c3=O)C2)cc1 (configuration not stated)	.	-1%	-16%	3%	.	2%	-1%	4%
COC(=O)Nc1ccc(SCC(=O)c2cccc([N+](=O)[O-])c2)cc1	.	26%	18%	6%	.	.	-11%	.
O=[N+]([O-])c1ccc(-c2cnc(NO)nc2)cc1	-8.7%	-20%	-8%	21%	-17%	-26%	9%	5%
CCCOc1ccc(N2C(=O)CC(S/C(N)=N/N=C(\C)c3cccs3)C2=O)cc1 (configuration not stated)	-2.9%	0%	.	-13%	1%	?	-2%	-2%
O=C(Nc1ccc(F)cc1F)N1CCCN(c2ccc(C(F)(F)F)cn2)CC1	.	-5%	?	2%	.	?	8%	-11%
Cc1ccc(S(=O)(=O)CCN2CCC(n3cccc3)CC2)cc1	.	-2%	-12%	-1%	.	-6%[46.1 µM]	-3%	-8%
CCS(=O)(=O)n1nc(-c2ccc(OC)cc2)nc1N	.	-1%	1%	3%	.	16%[46.1 µM]	-2%	8%
COc1ccc(C(=O)COc2ccc3ccc(=O)oc3c2)c(OC)c1	.	-9%	-7%	-7%	.	-4%	-2%	-22%
O=C(NNC1CC(=O)N(c2ccc3c(c2)OCCO3)C1=O)c1ccccc1 (configuration not stated)	6.5%	-6%	0%	15%	-23%	5%	7%	-2%
Cc1cc(C)n(C(=O)c2ccc(C)c(Br)c2)n1	.	2%	2%	-6%	.	.	1%	.
COc1cccc(C2N(c3ccc(Cl)c(Cl)c3)C(=O)C3CCCN32)c1OC (configuration not stated)	-3.3%	-11%	-10%	-1%	?	?	-30%	7%
CC(C)OP(=O)(c1ccc(N(C)C)cc1)C(Nc1ccccc1)c1ccccc1 (configuration not stated)	.	-1%	-2%	0%	.	?	-4%	?
CCOc1ccc(/C=N/Nc2ccc(Cl)nn2)c(O)c1	.	-3%	16%	-6%	.	2%[46.1 µM]	4%	12%
CC(C)N(C(=O)CSc1nnc(-c2ccc3c(c2)OCO3)n1C)C(C)C	.	-2%	-1%	6%	.	?	.	4%[46.1 µM]
O=C(NCCCN1CCOCC1)c1cc2cc(Br)ccc2oc1=O	-7.5%	5%	-3%	-15%	-2%	10%	-4%	10%
Cc1cc(Nc2ccccc2)n2nc(C)c(-c3ccccc3)c2n1	.	0%	25%	16%	.	.	7%	.
Cc1ccccc1CN(c1ccc(C(=O)N2CCCC2)cc1)S(C)(=O)=O	2.6%	0%	.	-4%	11%	2%	-13%	12%
CCN(CCCNC(=O)c1cc2cc3cc(C)ccc3nc2s1)c1cccc(C)c1	-4.1%	.	34%[activator]	.	1%	.	.	?
Cc1ccc(-c2nc3ccccc3s2)cc1NC(=O)c1cc(-n2cnnc2)ccc1Cl	-2.9%	0%	24%	3%	3%	-20%	17%	?
CCc1ccc(N2CC(C(=O)Nc3ccc(F)cc3)CC2=O)cc1 (configuration not stated)	.	2%	21%	-25%	.	-9%[46.1 µM]	8%	-8%
N/C(=N\O)c1cccc(CS(=O)(=O)c2ccccn2)c1	.	1%	-10%	-5%	.	3%	-1%	?
CSCc1nc2sc(C(=O)Nc3nc(C)cs3)c(C)c2c(=O)[nH]1	.	1%	41%[activator]	16%	.	?	.	27%[46.1 µM]
CCOC(=O)C1CCN(S(=O)(=O)CCNC(=O)c2cccc(OC)c2)CC1	.	-4%	-10%	?	.	-19%	.	10%
CC(=O)Nc1ccc(S(=O)(=O)NCc2ccc(C(=O)NCc3ccc4c(c3)OCO4)cc2)cc1	-2.4%	11%	31%[activator]	20%	-6%	-2%	3%	7%
OCCC1CN(Cc2ccc3nsnc3c2)CCN1C1CCCC1 (configuration not stated)	.	1%	-12%	-11%	.	.	4%	.
CCOc1ccc(-c2nnc(SCC(=O)N3CCCC3)o2)cc1	.	1%	55%[activator]	-11%	.	15%[46.1 µM]	15%	29%
COc1ccc(-c2noc(-c3ccoc3C)n2)cc1OC	.	0%	65%[activator]	-17%	.	.	4%	.
CCn1c(SCC(=O)N2CCCc3ccccc32)nc2ccccc2c1=O	-6.3%	-6%	?	6%	9%	?	-67%	?
COc1ccc(Cn2c(O)c(/C=N/NC(=O)c3ccncc3)c(=O)[nH]c2=O)cc1	.	10%	-16%	-7%	.	9%[46.1 µM]	-6%	2%[46.1 µM]
CCc1ccccc1N1CC(c2nnc(NC(=O)c3ccco3)s2)CC1=O (configuration not stated)	-5.8%	.	-2%	.	-9%	2%[46.1 µM]	.	13%[46.1 µM]
COc1ccc(C)cc1NC(=O)N(C(C)C)C1CCN(C(C)=O)CC1	-7.5%	.	6%	.	-5%	-6%[46.1 µM]	.	-4%[46.1 µM]
Cc1cc(Nc2cccc(Cl)c2)nc(N2CCOCC2)n1	-4.6%	9%	-17%	-17%	16%	?	-5%	-12%
O=C(CSc1nccn1-c1ccc(F)cc1)NCc1ccc2c(c1)OCO2	-0.8%	-5%	-28%	5%	11%	?	-33%	-8%
Cc1ccc(/C=C/C(=O)Nc2ccc(O)c3c(=O)cc(-c4ccccc4Cl)oc23)cc1	.	1%	-17%	2%	.	.	2%	.
CCc1ccc(OC(C)c2nc(-c3ccc(-n4cccc4)cc3)no2)cc1 (configuration not stated)	5.3%	.	-19%	.	-19%	-8%[46.1 µM]	.	?
O=C(CCNC(=O)C1CCN(S(=O)(=O)c2ccc(F)cc2)CC1)NCCc1ccc(Cl)cc1	.	1%	-11%	-11%	.	.	-6%	.
CCOC(=O)c1nnn(-c2nonc2N)c1-c1ccc(OCC)cc1	-3.5%	0%	?	6%	0%	?	-13%	-11%
Cc1ccc(C)c(NC(=O)c2cc(S(=O)(=O)N3CCCc4ccccc43)ccc2F)c1	0.5%	.	-27%	.	-24%	.	.	-29%[46.1 µM]
COc1ccc(C2CC(=O)N3CN(c4ccccc4F)CSC3=C2C#N)cc1OC (configuration not stated)	1.1%	1%	-14%	-2%	2%	-7%	-40%	.

Exported as labelled records: entries from further up.
COc1ccc(-c2noc(-c3ccoc3C)n2)cc1OC
- Cruzain Triton: .
- SARS PLpro yeast: 0%
- 2A StopGo: 65%[activator]
- RE007 growth inh: -17%
- Cruzain inh noDet: .
- MARV entry inh: .
- NS1 inh: 4%
- LASV entry inh: .
CCn1c(SCC(=O)N2CCCc3ccccc32)nc2ccccc2c1=O
- Cruzain Triton: -6.3%
- SARS PLpro yeast: -6%
- 2A StopGo: ?
- RE007 growth inh: 6%
- Cruzain inh noDet: 9%
- MARV entry inh: ?
- NS1 inh: -67%
- LASV entry inh: ?
COc1ccc(Cn2c(O)c(/C=N/NC(=O)c3ccncc3)c(=O)[nH]c2=O)cc1
- Cruzain Triton: .
- SARS PLpro yeast: 10%
- 2A StopGo: -16%
- RE007 growth inh: -7%
- Cruzain inh noDet: .
- MARV entry inh: 9%[46.1 µM]
- NS1 inh: -6%
- LASV entry inh: 2%[46.1 µM]

Going on with the list:
SMILES	Cruzain Triton	SARS PLpro yeast	2A StopGo	RE007 growth inh	Cruzain inh noDet	MARV entry inh	NS1 inh	LASV entry inh
COc1ccc(NC(=O)CSc2nc3[nH]c(=O)cc(O)c3s2)cc1OC	.	-10%	-8%	-20%	.	15%	.	-4%
Cc1cc(C)n(-c2nc3ccccc3n3c(C)nnc23)n1	.	-4%	8%	14%	.	?	.	-12%
COc1ccc(N2C(=O)C(OC(C)=O)C2c2ccc(C)cc2)cc1 (configuration not stated)	-3.1%	-10%	9%	32%	-9%	-6%	-12%	-24%
CC(=O)Nc1cccc(-c2nc3ccc(NC(C)=O)cc3[nH]2)c1	-5.5%	-8%	-10%	9%	-4%	?	-2%	-9%
COc1ccc(C(=O)C2CCCN(C(=O)c3ccnn3C)C2)cc1OC (configuration not stated)	.	0%	12%	-6%	.	.	1%	.
C=CCNC(=O)CSc1nc2sccc2c(=O)n1-c1ccccc1	.	-13%	24%	-1%	.	-16%[46.1 µM]	6%	13%
CCN(CC)C(=O)COc1coc(CN2CCN(Cc3ccccc3)CC2)cc1=O	.	-3%	-4%	-22%	.	.	2%	.
COc1cc(/C(C)=N/NC(=O)CSc2nc3ccccc3[nH]2)ccc1O	.	1%	-23%	19%	.	8%[46.1 µM]	-4%	4%
COc1ccc(-n2nc3c(c2NC(=O)c2ccc(Br)cc2)CS(=O)C3)cc1 (configuration not stated)	0.1%	0%	-10%	-7%	-4%	0%	-13%	.
Cn1cnnc1SCC(=O)Nc1cc(S(=O)(=O)N2CCCCC2)ccc1Cl	.	1%	-3%	-1%	.	6%[46.1 µM]	4%	1%
COc1cc(OC)c(C2=NOC(C(=O)O)C2)cc1Cl (configuration not stated)	0.7%	0%	.	-15%	0%	-6%	-4%	4%
O=C1C/C(=C\c2c(F)cccc2Cl)N2CCC1CC2	.	1%	-1%	-9%	.	20%	.	-10%
COc1cccc(COc2ccc(N(C)S(=O)(=O)c3ccccc3)cc2)c1	.	-2%	-21%	7%	.	?	-35%	?

Source: PubChem BioAssay (National Center for Advancing Translational Sciences (NCATS))
